Screens from PubChem.
miR-21 FLuc = raises the signal of a miR-21 reporter. HeLa miR-21 FLuc reporter, luciferase, 48 h. Potency, µM (highest dose often 38.3 µM), without a hit: at the highest dose reporter change, positive = more light. 340,000 tested, under 10 active. AID 2288; active = well fitted rising curve with a large enough effect; inconclusive = small, poorly fitted or top-dose-only effect; inactive = no such curve, though single readings can be large or run the other way;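 note: % of control where 0% means no effect; miR-21 action dims this reporter so a rising signal means less miR-21 action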
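Luminescence from a firefly luciferase reporter carrying a miR-21 binding site downstream, stably expressed under a CMV promoter in HeLa cells that make miR-21 endogenously, reports miRNA modulation after 48 h compound exposure up to approximately 40uM final.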
GLA inh pH 4.5 = alpha-galactosidase A (human) inhibition, pH 4.5 | P06280 | 230,000 tested, under 10 active | activity change, negative = inhibition, % at 105 µM | purified enzyme, 4-MU-alpha-Gal fluorescence, pH 4.5; inconclusive = small, poorly fitted or top-dose-only inhibition, or a rising curve; inactive = flat fitted curve, though single readings scatter; no compound was filed as active;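 note: 0% = full activity with enzyme and -100% = basal without enzyme; dose as in the result columns while the protocol names 77 µM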
Target sequence (P06280 whole entry, looked up): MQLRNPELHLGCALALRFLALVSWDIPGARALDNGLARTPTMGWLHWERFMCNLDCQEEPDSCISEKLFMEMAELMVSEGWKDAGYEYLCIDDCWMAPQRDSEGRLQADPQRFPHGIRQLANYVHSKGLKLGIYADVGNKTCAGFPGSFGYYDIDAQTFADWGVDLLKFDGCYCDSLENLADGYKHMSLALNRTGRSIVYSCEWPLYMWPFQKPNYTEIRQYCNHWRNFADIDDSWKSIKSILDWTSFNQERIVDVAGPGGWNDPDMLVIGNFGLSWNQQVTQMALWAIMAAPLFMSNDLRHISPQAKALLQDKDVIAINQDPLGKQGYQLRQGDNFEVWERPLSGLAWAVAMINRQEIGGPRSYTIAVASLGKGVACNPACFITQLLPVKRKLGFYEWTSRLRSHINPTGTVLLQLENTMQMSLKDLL
Rango complex inh = inhibitors of Rango-importin beta complex formation; Q14974; Rango CFP/YFP FRET sensor + importin beta, 45 min; Potency, µM (series often up to 92.2 µM), without a hit: top-dose inhibition of complex formation; hit rate 0.031% among 340,000; active = rising FRET ratio curve, often small or poorly fitted; inconclusive = mostly compound fluorescence or quenching in the first reads; inactive = flat curves in all reads;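 note: potency is the fitted concentration of half-maximal effect; 0% = DMSO wells and 100% = buffer wells lacking importin beta; nearly all actives have a fitted effect of over 15% in size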
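Inhibition scored from the CFP 486 nm/YFP 530 nm FRET ratio 45 min after adding 0.125 microM importin beta to 50 nM Rango biosensor preincubated 5 min with compound (room temperature, PBS with DTT, Tween-20, BSA). No-importin wells as positive control.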
Rango dissoc inh = inhibition of RanGTP-driven Rango-importin beta dissociation. O95149+P62826. Biochemical FRET Rango-importin beta, RanGTP-induced dissociation. Potency, µM (doses to about 46.1 µM), for inactives: at the highest dose activity change, negative = inhibition. hit rate 0.071% among 340,000. AID 540253; active means falling FRET ratio curve, often poorly fitted, with flat reads before Ran was added; inconclusive means other falling curves, or compound fluorescence or quenching; inactive means flat or rising ratio curve;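 note: potency is the fitted concentration of half-maximal effect; % of control where 0% means no effect; nearly all actives have a fitted effect of over 45% in size; -100% = wells without RanGTP and RCC1; the record marks most hits as doubtful in a second field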
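Rango FRET biosensor (snurportin-1 IBB flanked by N-terminal EYFP and C-terminal CFP10) at 0.1 uM, with 0.25 uM importin beta in PBS, 1mM DTT, 0.02% Tween-20, 0.1% BSA. 0.6 uM Ran, 2mM GTP and 0.2 uM RCC1 were then added for 45 min at room temperature. Inhibition read as loss of FRET rise.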
Active calls of the source: *; ? = inconclusive; . = no result given; & = joins results of further samples; [ ] = dose if it differs, or a comment. Only part of the results is shown, so the mix of outcomes need not match the whole.

miR-21 FLuc	GLA inh pH 4.5	Rango complex inh	Rango dissoc inh	Molecule
.	.	-5.9%	-3%	O=S(=O)(Nc1cccc(S(=O)(=O)N2CCCC2)c1)c1ccc(F)cc1
19%	.	-1.1%	-3%	CCOc1ccc(C(C)=O)cc1COc1cccnc1[N+](=O)[O-]
-3%	-1	4.0%	-1%	COc1ccccc1NCc1ccc([N+](=O)[O-])s1
.	.	1.3%	-6%	COc1ccc(CCNC(=O)c2cc(S(=O)(=O)N3CCOCC3)ccc2N2CCCC2)cc1OC
12%	.	7.3%	-14%	CC1CCN(C(=O)CSc2nnc(CNC(=O)c3ccc(S(=O)(=O)N(C)C)cc3)o2)CC1
-12%	-6	?	-15%	N#Cc1c(N)nc2c(c1N)CC(CCl)O2 (stereo unspecified)
-28%	3	-1.4%	-9%	Cc1csc(NC(=O)CSc2ncc(-c3ccccc3)[nH]2)n1
-31%	.	-0.2%	5%	CC(=O)c1ccc(OCc2cc(C(=O)NCCc3ccc(Cl)cc3)no2)cc1
-11%	1	.	.	CC(C)(C)c1ccc(C(=O)NC(Cc2ccccc2)C(=O)O)cc1 (stereo unspecified)
-1%	-3	-2.2%	18%	COc1cc(N2CCOCC2)ncn1
.	.	0.3%	0%	Cc1cc(C(=O)CN2C(=O)C(=O)N(Cc3ccco3)C2=O)c(C)n1CCc1ccccc1
-15%	-7	-4.1%	10%	COc1ccc(NC(=S)N(CCc2nc3cc(C)c(C)cc3[nH]2)Cc2cccnc2)cc1
.	.	-5.9%	-19%	O=[N+]([O-])c1cccc2[nH]ncc12
1%	8	-0.6%	-3%	COc1cc(C(=O)Nc2ccc(C#N)cc2)c([N+](=O)[O-])cc1OC
-1%	4	-2.8%	-12%	O=C1C2C3CCCC3=C3CCCC3C2C(=O)N1c1cccc(Cl)c1 (stereo unspecified)
-23%	.	-0.7%	-20%	COc1c(C)cccc1C(=O)NC(=S)Nc1ccccc1N1CCCC1
-3%	6	-1.6%	1%	CN(CCC#N)S(=O)(=O)c1ccc2[nH]cc(C(=O)NCCc3ccccc3)c(=O)c2c1
.	.	1.4%	10%	O=C(c1c(F)cccc1F)N1CCN(S(=O)(=O)c2ccc3c(c2)OCCO3)CC1
-1%	.	0.7%	1%	COc1ccccc1N=Nc1c(C)n[nH]c1C
-1%	-3	-3.5%	4%	CC(=O)c1ccc(NC2c3ncccc3C(=O)N2Cc2ccc(F)cc2)cc1 (stereo unspecified)
-1%	-5	-4.1%	-8%	COC(=O)c1cccc(NC(=O)C(C)(C)C)c1
3%	.	?	-23%	N#Cc1cccc(NC(=O)CSc2sc3c(O)cc(=O)[nH]c3c2C#N)c1
0%	.	5.9%	1%	COc1cc(NS(=O)(=O)c2ccc(NC(=O)/C=C/C(=O)O)cc2)nc(OC)n1
-4%	-7	-0.8%	-13%	CCOC(=O)C1(C(=O)OCC)C(c2ccccc2)CC(O)N1C(C)=O (stereo unspecified)
-10%	0	0.1%	9%	COc1ccc(NC(=O)CSc2nnc(CCC(=O)Nc3ccc(C)c(Cl)c3)n2C)cc1
-2%	-3	-5.4%	-17%	CC(C)c1cccc(C(C)C)c1NC(=O)COC(=O)c1ccc(OCC(=O)Nc2cccc(C(F)(F)F)c2)cc1
-7%	-27	1.4%	0%	C=CCn1c(CC(C)(C)C)nc2ccccc21
.	.	-1.1%	27%	CN(CC(=O)Nc1ccc(F)cc1)C(=O)COC(=O)C1CCN(c2ccc(C(F)(F)F)cn2)CC1
.	.	2.1%	2%	COc1cc2cc(CCCO)oc(=O)c2cc1OC
.	.	0.6%	-6%	C1=C(c2sc3ccccc3c2-c2ccc(OCCN3CCOCC3)cc2)CCCC1

An excerpt from above, limited to Rango complex inh and GLA inh pH 4.5.
canonical_smiles	Rango complex inh	GLA inh pH 4.5
COc1cc(NS(=O)(=O)c2ccc(NC(=O)/C=C/C(=O)O)cc2)nc(OC)n1	5.9%	.
CN(CCC#N)S(=O)(=O)c1ccc2[nH]cc(C(=O)NCCc3ccccc3)c(=O)c2c1	-1.6%	6
CC(C)c1cccc(C(C)C)c1NC(=O)COC(=O)c1ccc(OCC(=O)Nc2cccc(C(F)(F)F)c2)cc1	-5.4%	-3

Three compounds out of the list above, sorted by the value under Rango complex inh, low to high:
Molecule,Rango complex inh
O=S(=O)(Nc1cccc(S(=O)(=O)N2CCCC2)c1)c1ccc(F)cc1,-5.9%
Cc1csc(NC(=O)CSc2ncc(-c3ccccc3)[nH]2)n1,-1.4%
COc1ccccc1NCc1ccc([N+](=O)[O-])s1,4.0%

Next entries
miR-21 FLuc	GLA inh pH 4.5	Rango complex inh	Rango dissoc inh	Molecule
.	.	-1.9%	-1%	Cc1ccc(S(=O)(=O)N(C)c2ccc(C(=O)Nc3ccc(C)cn3)cc2)cc1
-5%	-1	6.7%	1%	COc1ccc(OC)c(NC(=O)CSc2nnc3ccc(-c4ccncc4)nn23)c1
0%	-23	3.8%	-5%	O=C(O)c1cc(-c2ccccn2)n[nH]1
-10%	1&-2&-12	0.2%&-1.3%&0.0%	2%&-4%&9%	CN(C)CCC(c1ccccc1)c1ccccn1 (stereo unspecified)
-1%	.	-3.8%	1%	CCCN(C(=O)CSc1nnnn1-c1ccccc1OC)C1CCS(=O)(=O)C1 (stereo unspecified)
-8%	4	-0.8%	27%	CN1CCN(C(=O)c2cc3c(C(F)(F)F)nn(C)c3s2)CC1
-1%	-10	7.2%	-15%	Cc1nc(SCC(N)=O)c([N+](=O)[O-])[nH]1
3%	8	-2.3%	4%	COC(=O)c1ccc(CNC(=O)COC(=O)COc2ccc(OC)cc2)cc1
4%	1	1.0%	12%	O=C(OCC(O)COC(=O)c1cccnc1)c1cccnc1
.	.	1.2%	-6%	CN(C(=O)c1cccc(NC(=O)Cc2ccc(NC(=O)C3CCCN(C(=O)C4CC4)C3)cc2)c1)C1CCCCC1 (stereo unspecified)
-3%	.	-0.1%	3%	C=CCn1c(N2CCCCCC2)nc2c1c(=O)n(C)c(=O)n2C
1%	2	4.1%	6%	O=[N+]([O-])c1ccccc1S(=O)(=O)NCc1ccco1
.	.	-3.0%	-18%	O=C(NCCc1ccc2c(c1)OCCO2)c1cc(S(=O)(=O)N2CCCC2)ccc1Cl
-1%	.	0.1%	-27%	COc1cc(/C=N\NS(=O)(=O)c2ccccc2)cc(OC)c1OC
-12%	-7	0.0%	19%	O=[N+]([O-])c1cc(/C=N/O)ccc1SCc1ccccc1Cl
5%	4	4.6%	4%	O=C(CSC1CS(=O)(=O)c2cc([N+](=O)[O-])ccc21)NNC(=O)c1ccccc1 (stereo unspecified)
-2%	5	5.2%	0%	Cc1ccc(NC(=S)NNC(=O)CCn2cc(C)cn2)cc1
-7%	6	0.5%	-10%	CN(C)c1ccc(C2OC(=O)C3(CCCC3)C(=O)C2(C)C)cc1 (stereo unspecified)
0%	4	0.5%	1%	Cc1ccc(C(=O)Nc2ccc3nccnc3c2)cc1
7%	6	1.4%	-4%	CCOC(=O)C1(Cc2cccc(OC)c2)CCN(Cc2ccc(OC)c(OC)c2)CC1
1%	6	4.7%	3%	O=C(Cc1ccc(F)cc1)Nc1nnc(SCC(=O)N2CCCCC2)s1
-1%	.	0.2%	21%	CC(=O)NC(Cc1ccccc1)C(=O)NC(Cc1ccccc1)C(=O)O (stereo unspecified)
-5%	0	-3.1%	2%	OC(CNCC1CCCO1)COc1ccc(OCC(O)CNCC2CCCO2)cc1 (stereo unspecified)
4%	0	5.0%	0%	O=C(O)c1cccc(NS(=O)(=O)c2ccc3c(c2)C(=O)c2ccccc2C3=O)c1
-3%	.	3.1%	0%	COc1ccccc1CN(C)C(=O)c1cnc(C)cn1
-3%	.	3.9%	-2%	CCOc1ccc2ccccc2c1/C=N/NC(=O)c1ccc(C)nc1
-8%	-16	0.5%	12%	COc1ccc(S(=O)(=O)NN(C)C)cc1N(C)S(=O)(=O)c1ccc(Cl)cc1
-18%	-8	?	?	Cc1ccc(N2C(=O)[C@@H]3[C@H](C2=O)[C@H]2C=CC=NN2[C@@H]3C(=O)Nc2ccccc2)cc1
0%	0	0.4%	-1%	O=C(NCc1cccnc1)C1CCN(S(=O)(=O)c2cccnc2)CC1
4%&-70%	.	-1.4%	-1%	Cc1nn(CC(=O)Nc2ccccc2C(F)(F)F)c(=O)c2cccn12

Ordered by SMILES length (smallest number first): part of the list above.
miR-21 FLuc	GLA inh pH 4.5	Rango complex inh	Rango dissoc inh	Molecule
-10%	1&-2&-12	0.2%&-1.3%&0.0%	2%&-4%&9%	CN(C)CCC(c1ccccc1)c1ccccn1 (stereo unspecified)
-7%	6	0.5%	-10%	CN(C)c1ccc(C2OC(=O)C3(CCCC3)C(=O)C2(C)C)cc1 (stereo unspecified)
-1%	.	-3.8%	1%	CCCN(C(=O)CSc1nnnn1-c1ccccc1OC)C1CCS(=O)(=O)C1 (stereo unspecified)
4%	0	5.0%	0%	O=C(O)c1cccc(NS(=O)(=O)c2ccc3c(c2)C(=O)c2ccccc2C3=O)c1

The list continues.
miR-21 FLuc	GLA inh pH 4.5	Rango complex inh	Rango dissoc inh	Molecule
.	.	-0.5%	0%	O=C(NCC1CCCO1)c1cccc(S(=O)(=O)Nc2cccc(C(F)(F)F)c2)c1 (stereo unspecified)
0%	.	-2.1%	2%	Cc1ccc(-c2nnn(CC(=O)N(c3ccccc3)C(C(=O)NC3CCCC3)c3ccncc3)n2)o1 (stereo unspecified)
-5%	0	-2.8%	-10%	Cc1ccc(C2c3c(oc4cc(C)c(C)cc4c3=O)C(=O)N2CCCN2CCOCC2)cc1 (stereo unspecified)
21%	10	?	?	NC(=O)c1sc2nc3c(c(-c4cccs4)c2c1N)CCCCC3
12%	.	-1.9%	-12%	CSc1ccccc1NC(=O)CSc1nnc(COc2ccccc2)o1
4%	.	-3.0%	-6%	COc1ccc(CCNC(=O)C2CCN(S(=O)(=O)c3ccc4c(c3)oc(=O)n4C)CC2)cc1OC
-2%	-1	2.6%	0%	O=C(CSc1nnc(Cc2ccccc2)o1)N1CCCc2ccccc21
-7%	6	?	0%	Cc1ccc(-n2c3c(cc(C(=O)NC4CCSC4=O)c2=O)C(=O)CC(C)(C)C3)cc1 (stereo unspecified)
.	.	0.5%	19%	O=C(Nc1ccc(C(=O)N2CCOCC2)cc1)Nc1cccc(C(F)(F)F)c1
.	.	-3.6%	15%	Cc1ccccc1C(=O)N1CCC(C(=O)OCC(=O)Nc2cccc([N+](=O)[O-])c2C)CC1
-3%	.	0.6%	16%	CCN1CCCC1CNS(=O)(=O)c1c(C)cc(C)cc1C (stereo unspecified)
-8%	-2	-1.2%	-6%	CCOC(=O)c1sc(NS(=O)(=O)c2ccc(C)cc2)nc1C
17%	-7	2.7%	1%	CCOc1ccc(OCC)c(NC(=O)CN2CCC(NC(=O)c3cccc(F)c3)CC2)c1
12%	.	-0.5%	10%	Cc1ccc(N(Cc2ccccc2O)C(=O)c2ccccc2F)cc1
-13%	3	.	.	CCOC(=O)c1[nH]c2ccc(Br)cc2c1NC(=O)CCN1CCCCC1
2%	3[21.1 µM]	1.2%	16%	CC(=O)OCC1=C(C(=O)O)N2C(=O)C(NC(=O)c3ccc(COc4ccc(Cl)cc4)o3)C2SC1 (stereo unspecified)
6%	.	1.7%	-13%	CCOC(=O)N1CCN(C(=O)CSc2nc3c([nH]c4ccccc43)c(=O)n2CC)CC1
.	.	-1.2%	?	O=C(CNC(=O)c1ccc(Cl)cc1Cl)OCC(=O)N1CCCC1=O
-9%	5	-0.9%	10%	O=C(Cc1ccc(Cl)cc1)NCCS(=O)c1ccc(Cl)cc1 (stereo unspecified)
-1%	3	-6.4%	10%	CCOc1cccc(N(C(=O)Cc2cccs2)C(C(=O)NC2CCCCC2)c2cccn2C)c1 (stereo unspecified)
